Screening results from PubChem.
KAT2A inh = GCN5L2 (KAT2A) acetyltransferase inhibition; GCN5L2 HAT assay, ThioGlo1 CoA-SH fluorescence; Potency, µM (doses to about 58.9 µM), for inactives: at the highest dose activity change, negative = inhibition, most hits filed as inhibitors; 390,000 compounds, 0.21% hits
Target sequence (Q92830 whole entry, looked up): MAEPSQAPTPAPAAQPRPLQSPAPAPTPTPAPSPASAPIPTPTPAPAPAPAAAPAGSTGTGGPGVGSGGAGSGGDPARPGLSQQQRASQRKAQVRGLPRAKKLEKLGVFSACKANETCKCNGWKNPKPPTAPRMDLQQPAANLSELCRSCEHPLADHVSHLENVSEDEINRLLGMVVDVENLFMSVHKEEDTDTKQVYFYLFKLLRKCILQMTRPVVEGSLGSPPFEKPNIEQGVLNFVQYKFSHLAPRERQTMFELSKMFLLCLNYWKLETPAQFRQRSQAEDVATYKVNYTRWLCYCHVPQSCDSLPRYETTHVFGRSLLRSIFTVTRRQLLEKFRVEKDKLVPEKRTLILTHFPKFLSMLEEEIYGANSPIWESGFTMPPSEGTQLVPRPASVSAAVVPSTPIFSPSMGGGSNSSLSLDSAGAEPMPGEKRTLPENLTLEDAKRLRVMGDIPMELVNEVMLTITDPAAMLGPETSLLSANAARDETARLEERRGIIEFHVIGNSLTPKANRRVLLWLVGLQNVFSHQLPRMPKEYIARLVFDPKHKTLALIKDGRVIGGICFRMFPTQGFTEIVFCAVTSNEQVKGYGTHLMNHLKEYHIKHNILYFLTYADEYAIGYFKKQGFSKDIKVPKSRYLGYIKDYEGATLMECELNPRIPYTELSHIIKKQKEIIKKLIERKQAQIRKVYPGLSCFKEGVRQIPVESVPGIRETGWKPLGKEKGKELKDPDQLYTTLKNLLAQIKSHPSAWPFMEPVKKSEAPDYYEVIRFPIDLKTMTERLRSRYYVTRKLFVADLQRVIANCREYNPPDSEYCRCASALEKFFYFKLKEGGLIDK
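Compounds, pin-transferred from DMSO stocks, meet 20nM GCN5L2 for 15 min before the reaction begins with H3(1-25) peptide (75uM) and acetyl-CoA (70uM). Thiol-reactive ThioGlo1 reports CoA release over 20 min at room temperature.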
TDP1 cell CPT = DT40-hTDP1 cell growth loss with CPT. chicken DT40 Tdp1-/-;hTDP1 cells + 20 nM CPT, ATP luminescence, 48 h. Potency, µM (titrated, usually from 46.2 µM), without a hit: at the highest dose activity change, negative = growth inhibition, hits mostly inhibitors. 420,000 compounds, 12% hits; also: nearly all actives have a fitted effect of over 55% in size
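Chicken DT40 Tdp1-/- cells stably complemented with human TDP1 were seeded at 400 cells/well in medium containing 20 nM camptothecin, exposed to pin-transferred compounds, and grown at 37 °C for at least 48 hr. Viability was read as ATP luminescence.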
* = called active by the depositor; u = inconclusive; & = joins results of further samples; [ ] = remark or other dose. Calls follow the shape of the dose curve; as a rule, active = well fitted curve in the direction sought with a large enough effect; inconclusive = small, poorly fitted or top-dose-only effect, or another doubt; inactive = no such curve, though single readings can be large; an effect the other way counts as inactive or inconclusive. % is scaled to controls: 0 for no effect and ±100 for the full control effect; potency is read from the fitted curve at half-maximal effect. Only part of the results is shown; most or all hits stand in other tables.

smiles	KAT2A inh	TDP1 cell CPT
O=C(c1cccc(NS(=O)(=O)c2ccc(Br)cc2)c1)N1CCCCC1	0%	5%
COc1ccc2oc(C)c(C(=O)Cn3ccnc3)c2c1	-2%	25%
COc1ccccc1-c1coc2c(CN3CCCC(C)C3)c(O)ccc2c1=O (stereo unspecified)	u	u
Cc1ccc2nc(N(CCCN(C)C)C(=O)c3ccc(S(=O)(=O)N4CCCCCC4)cc3)sc2c1	0%	u
Cc1cc(NC(=O)CCC(=O)N(CC(=O)NCC2CCCO2)c2ccccc2C)no1 (stereo unspecified)	-2%	-1%
O=[N+]([O-])c1cc(-c2nc(-c3ccncc3)no2)cc([N+](=O)[O-])c1	5%	10µM*
CCOC(=O)CSc1nc(C)c(Oc2ccc(Cl)cc2Cl)c(=O)[nH]1	-17%	u
COc1cccc(CNC(=O)C2CCN(C(=O)N3CC(C)Oc4ccccc43)CC2)c1 (stereo unspecified)	-2%	u
CCCCc1ccc(S(=O)(=O)Nc2nnc(C)s2)cc1	-5%	-2%
Cc1cc(/C(N)=N/OC(=O)c2ccc(Cl)cc2)no1	-4%	6%
CCN(CC(=O)NC1CCCC1)S(=O)(=O)c1ccc(C)cc1	2%	-19%
CCCCNC(=O)COC(=O)c1cc(Br)ccc1Cl	4%	4%
O=C(c1ccco1)N1CCN(c2nc3ccsc3c(=O)s2)CC1	-4%	u
CCCc1ccc(OCc2ccccc2)c2c(=O)cc(C(=O)OCC)oc12	0%	21%
COc1cccc(CNC(=O)CCn2ccc3cc(S(=O)(=O)N4CCCC4)ccc32)c1	-8%&-2%	u
Cc1cc(C)c(NC(=O)CN2C(=O)CCn3nc(-c4cccn4C)cc32)c(C)c1	0%	4%
COc1ccc(NC(=O)COC(=O)c2ccc(F)cc2F)cc1	-3%	12%
O=S(=O)(Cc1ccccc1)Nc1ccc(S(=O)(=O)NCC2CCCO2)cc1 (stereo unspecified)	3%	-22%
CCCCN(CCCC)S(=O)(=O)c1ccc(NC(=O)c2ccc([N+](=O)[O-])cc2Cl)cc1	-15%	u
CCCN1CCN(S(=O)(=O)c2cn(C)nc2C)CC1	u	-1%
CC(=O)NCCC(=O)Nc1cccc(S(=O)(=O)N(C)c2ccccc2)c1	-7%	-7%
COC(=O)c1sc(S(=O)(=O)Nc2ccc3cn[nH]c3c2)c(C(=O)OC)c1C	1%	2%
COCc1nc2ccccc2n1CCOc1cccc(C)c1	-2%	u
Cc1cc(C)nc(NNS(=O)(=O)c2c(C)cc(C(C)(C)C)cc2C)n1	1%	-9%
Cc1c(NC(=O)Nc2ccc(Cl)c(C(F)(F)F)c2)c(=O)n(-c2ccccc2)n1C	-3%	-25%
Cc1ccc(NC(=O)COC(=O)CN2C(=O)NC(C)(C)C2=O)cc1S(=O)(=O)N1CCOCC1	-3%	-16%
CCCCCn1c(N2CCCC2)nc2c1c(=O)n(C)c(=O)n2C	-17%	u
CS(=O)(=O)c1ccc(Cl)c(NC(=O)C2CC(=O)N(c3ccc4c(c3)OCCO4)C2)c1 (stereo unspecified)	-17%	-8%
Nc1nc(NCc2ccco2)nc(N2CCCCC2)c1[N+](=O)[O-]	-7%	-29%
Cc1ccc(S(=O)(=O)C(CNC(=O)C(C)C)c2cccs2)cc1 (stereo unspecified)	-3%	-7%
Cc1ccc(S(=O)(=O)Nc2nc(-c3ccccc3)cs2)cc1	-1%	2%
Cc1ccc(-c2nc(S(=O)(=O)c3ccccc3)c(SCC(=O)NCC3CCCO3)o2)cc1 (stereo unspecified)	-3%	u
COCCn1c(-c2ccc(OC)cc2)cnc1SCC(=O)Nc1cc(C)on1	-14%	-5%
O=C(O)c1cc([N+](=O)[O-])ccc1NCCO	-8%	-15%
Cc1cc(C)cc(NC(=O)C2CCC(CNC(=O)[C@@H]3Cc4ccccc4CN3)CC2)c1 (stereo partly specified)	-4%	-14%
O=C(NC(=S)Nc1ccccc1Cl)C1CC1	1%	-11%
Cn1c(SCc2nc3ccccc3n2CCO)nc2ccccc21	2%	-12%
COc1ccc2c(c1)c1ncn(CCCN3CCOCC3)c(=O)c1n2C	0%	-11%
Cc1ccc(NC(=O)COC(=O)c2ccco2)cc1C	-1%	9%
COc1ccc(C(=O)Nc2ccc(Cl)cc2C(=O)N2CCCC(C)C2)cc1 (stereo unspecified)	-8%	-28%
CC(C)CC(=O)N1CCC(O)(CS(=O)(=O)Cc2ccc(Cl)cc2)CC1	0%	-29%
Cn1ccsc1=NC(=O)c1ccccc1OC(F)F	-3%	1%
C=CCn1cnc2scc(-c3ccc(C)c(C)c3)c2c1=O	-2%	-17%
C/C(=N\NC(=O)Cn1nc(C)c(Br)c1C)c1cccs1	-2%	-19%
Cc1ccc2c(c1)NCC(C(=O)NC1CCC(C)CC1)O2 (stereo unspecified)	-2%	4%
CN1C(=O)C2CN(CCc3ccccc3)CNC2N(C)C1=O (stereo unspecified)	-2%	-13%
COc1ccc(C(c2nnnn2C(C)(C)C)N2CCN(c3nc4ccccc4s3)CC2)cc1 (stereo unspecified)	-10%	7%
COc1ccc(C2c3c(oc4ccccc4c3=O)C(=O)N2c2nc(C)c(C)s2)cc1 (stereo unspecified)	0%	10%
COc1ccc(OC)c(C(=O)NC(CC(N)=O)c2ccc(NCc3ccc(F)c(F)c3)c([N+](=O)[O-])c2)c1 (stereo unspecified)	2%	-14%
Cc1cc(NC(=O)/C=C/C(=O)N(CC(=O)NC2CCCC2)c2ccc(F)cc2)no1	1%	8%
Cc1ccc(-n2c(C)nn(CC3CC3)c2=O)cc1	1%	0%
COc1cccc(C(=O)N2CCCC(c3nc(-c4cccs4)no3)C2)c1 (stereo unspecified)	-4%	u
O=C(NCC(=O)N(c1cccc(F)c1)C(C(=O)NC1CCCC1)c1cccnc1)c1ccco1 (stereo unspecified)	-6%	5%
OC(COCc1ccc(Cl)cc1)CN1CCCCC1 (stereo unspecified)	0%	5%
Cc1ccc(Nc2nc(N)nc(CN3CCCCCC3)n2)c(C)c1	1%	u
CCNC(=O)Oc1ccc(-c2csnn2)cc1	-7%	u
Cc1ccc(C(=O)Nc2ccccc2)cc1S(=O)(=O)Nc1ccccc1	-3%	-12%
CCCCCOc1ccc(NC(=O)CCCC(=O)O)cc1	-4%	13%
NC(=O)c1ccsc1NC(=O)C1CCCCC1	-10%	0%
NC(=O)c1cc(N)ccc1N1CCCCC1	-2%	10%

Next part:
smiles	KAT2A inh	TDP1 cell CPT
COc1ccc(CN2C(=O)c3ccccc3C2=O)cc1C(=O)OCC(=O)NC1CCCCC1	0%	5%
COc1cc(C(=O)N=c2sccn2C)c([N+](=O)[O-])cc1OC	16%	-10%
CCc1ccc(OCC(=O)OC(C)C(=O)NC2CC2)cc1 (stereo unspecified)	-1%	3%
Cc1ccc(C(=O)C(C)OC(=O)c2ccc(Cl)nc2)cc1 (stereo unspecified)	-6%	-1%
CCc1ccc(-c2nc(CS(=O)CC(=O)NCc3ccc(F)cc3)c(C)o2)cc1 (stereo unspecified)	-6%	u
COC(=O)[C@H]1[C@H]2C[C@@H]3c4[nH]c5cc(OC)ccc5c4CCN3C[C@H]2C[C@@H](OC(=O)c2ccc(N)cc2)[C@@H]1OC	-9%	u
CCc1ccccc1OCC(=O)OCC(=O)N1CC(=O)Nc2ccccc21	-5%	-3%
O=C(COC(=O)c1ccc(O)cc1O)c1ccc2c(c1)OCCO2	-3%	-7%
CCOC(=O)c1cnn(-c2ccccc2)c1N	-4%	0%
O=C(c1ccco1)N1CCN(Cc2nc(Cc3ccccc3)no2)CC1	-9%	-3%
COC(CNC(=O)c1ccc2c(=O)n(Cc3ccc4c(c3)OCO4)c(=S)[nH]c2c1)OC	-3%	u
Cc1nc2ccc(S(=O)(=O)NC(CC(C)C)C(=O)N3CCN(c4ccc(F)cc4)CC3)cc2s1 (stereo unspecified)	-5%	u
Cc1ccc(NC(=O)CSc2nnc(-c3ccncc3)o2)cc1	3%	-22%
CC(C)[C@H](NC(=O)N1CC(=O)Nc2ccccc21)C(=O)N1CCC(C(=O)O)CC1	-7%	5%
Cc1ccc2c(=O)cc(C(=O)Nc3cccc(Cl)c3C)oc2c1C	-6%	2%
CCCCCn1c(N)c(-c2nc3ccccc3o2)c2c([N+](=O)[O-])nn(CC)c(=O)c21	-1%	u
CCC(CC)C(=O)Nc1cccc(C(=O)N2CCCC2)c1	-6%	-3%
COc1ccc(CNc2cccc(F)c2)cc1Br	-10%	-20%
CCN=C(Nc1ccc2c(c1)OCO2)SC1CC(=O)N(c2ccccc2F)C1=O (stereo unspecified)	u	-23%
CCC(=O)N1CCc2cc(S(=O)(=O)NCCCOC)ccc21	-8%	-4%

Compounds shown so far containing an NH in an aromatic ring, in the order listed:
smiles	KAT2A inh	TDP1 cell CPT
CCOC(=O)CSc1nc(C)c(Oc2ccc(Cl)cc2Cl)c(=O)[nH]1	-17%	u
COC(=O)c1sc(S(=O)(=O)Nc2ccc3cn[nH]c3c2)c(C(=O)OC)c1C	1%	2%
COC(=O)[C@H]1[C@H]2C[C@@H]3c4[nH]c5cc(OC)ccc5c4CCN3C[C@H]2C[C@@H](OC(=O)c2ccc(N)cc2)[C@@H]1OC	-9%	u
COC(CNC(=O)c1ccc2c(=O)n(Cc3ccc4c(c3)OCO4)c(=S)[nH]c2c1)OC	-3%	u

The list continues.
smiles	KAT2A inh	TDP1 cell CPT
C=CCCN(C1CCCC1)S(=O)(=O)c1ccccc1Br	-27%	u
CN(CC(=O)NC1CCCCCC1)S(=O)(=O)c1cnc[nH]1	3%	-4%
CC1(C)CC(NS(=O)(=O)c2ccc(F)cc2)CC(C)(C)N1	0%	-17%
Cc1[nH][nH]c(=O)c1C=NCc1cccnc1	3%	0%
O=C(Cc1ccccc1)Nc1ccc(F)cc1	0%	-3%
Cn1c(SCC#N)nnc1-c1ccc2c(c1)OCO2	-2%	0%
CCCc1cc(=O)[nH]c(SCC(=O)Nc2ccc(OC)c(S(=O)(=O)N3CCCCC3)c2)n1	-4%	u
NC(=O)CC[C@@H]1NC(=O)[C@H](CO)NC(=O)c2cc([N+](=O)[O-])cc(I)c2NCC[C@@H](C(N)=O)NC1=O	-9%	-17%
CS(=O)(=O)N1CCC(C(=O)Nc2ccc3c(c2)OCCO3)CC1	-5%	-8%
COc1ccc(NC(=O)COc2cccc3c2CCN(C)C3=O)c(OC)c1	-8%	13µM*
CCOc1ccc(S(=O)(=O)N/N=C2/CC(c3ccccc3)Oc3ccccc32)cc1 (stereo unspecified)	-1%	u
CSc1cccc(NC(=O)CCCNC(=O)c2ccc(Cl)cc2)c1	-2%	-4%
COc1cc(OC)cc(C(=O)N[C@H](C(=O)Nc2nc(-c3ccc(F)c(F)c3)cs2)C(C)C)c1	-4%	u
COc1ccc(N(C)S(=O)(=O)c2c(C)noc2C)c(OC)c1	-1%	-15%
OC(Cc1nc2ccccc2[nH]1)c1ccccc1Cl (stereo unspecified)	-5%	-17%
O=C(Nc1ccccc1N1CCOCC1)c1ccc([N+](=O)[O-])cc1	-4%	-24%
CCOc1cc(C(=O)OCc2ccc(OC)cc2)ccc1OCC(=O)N1CCOCC1	-2%	-24%
COc1ccccc1C(=O)Nc1c2c(nn1-c1cccc(C)c1C)CS(=O)C2 (stereo unspecified)	-4%[0.501 µM]	-18%
Cc1cc(C)c(NC(=O)CNC(=O)CN2C(=O)NC3(CCCc4ccccc43)C2=O)c(C)c1 (stereo unspecified)	-7%	-3%
O=C1NCCN(Cc2cccc(Oc3ccccc3)c2)C1CC(=O)N1CCCCO1 (stereo unspecified)	-24%	u

At a glance, some entries already given:
smiles	KAT2A inh	TDP1 cell CPT
COc1ccccc1C(=O)Nc1c2c(nn1-c1cccc(C)c1C)CS(=O)C2 (stereo unspecified)	-4%[0.501 µM]	-18%
Cc1cc(C)c(NC(=O)CNC(=O)CN2C(=O)NC3(CCCc4ccccc43)C2=O)c(C)c1 (stereo unspecified)	-7%	-3%
O=C1NCCN(Cc2cccc(Oc3ccccc3)c2)C1CC(=O)N1CCCCO1 (stereo unspecified)	-24%	u

Other entries follow.
smiles	KAT2A inh	TDP1 cell CPT
Cc1ccc(S(=O)(=O)N2CCN(C(=O)c3cc4c(s3)CCCC4)CC2)c(C)c1	0%	u
CCN(CC)S(=O)(=O)c1ccc2c(c1)N(CC(=O)N1CCN(c3cc(Cl)ccc3C)CC1)C(=O)CO2	-1%	u
Cc1c(C(=O)NCc2ccccn2)oc2c(Cl)cccc12	2%	4%
O=C(CSc1nnc(NC(=O)c2c(F)cccc2F)s1)NC1CCCC1	-6%	5%
COc1ccc(S(=O)(=O)NCC2CCC(C(=O)O)CC2)cc1 (stereo unspecified)	2%	5%
CCOC(=O)c1sc(NC(=O)CCCCl)nc1C	-4%	-16%
CC1=CC(C)(C)NC(=S)N1c1ccccc1	0%	21µM*
CCOC(=O)CSc1nnc(NC(=O)c2cccc([N+](=O)[O-])c2)s1	19%	-7%
C=CCSc1nnc(-c2nnc(SCC=C)n2CC)n1CC	u	-14%
